# High-throughput results as filed in PubChem.
# Sfp inh: blocks B. subtilis Sfp PPTase activity; Q9F4F7; Biochemical Sfp PPTase activity, qHTS; Potency, µM, for inactives: max response, negative = inhibition, hits mostly inhibitors; hit rate 3.5% among 310,000; AID 1490; active = well fitted inhibition curve with a large enough effect; inconclusive = small, poorly fitted or top-dose-only effect, or another doubt; inactive = no such curve, though single readings can be large or run the other way;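 note: the enzyme is Sfp with the accession as filed and its product quenches rhodamine fluorescence; potency is the fitted concentration of half-maximal effect; 0% = enzyme reaction without inhibitor and -100% = no enzyme wells; top concentration of the series not given in the record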
#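 Reaction rates are the 30-min fluorescence difference (ex 525, em 598 nm) in wells containing 15 nM Sfp, 5 uM rhodamine-CoA and 12.5 uM BHQ-2-YbbR at pH 7.6 with 10 mM MgCl2.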
# TRPV1 PAM: human TRPV1 potentiation; TRPV1-expressing cells, Fluo-8 calcium influx, capsaicin EC20 potentiation; host cell line not named in the record; control for the full effect not named in the record; AID 540277; potentiation, % at 8.33 µM; hit rate 0.02% among 320,000; active means potentiation above 80%; inconclusive means 30% to 80%; inactive means below 30%; note: 0% is about no effect
#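 Fluo-8 calcium influx in TRPV1-expressing cells, kinetic read (ex 480/em 520 nm). Compound added and read 3 min for agonist activity, followed by capsaicin at EC20 final and 2 min further read for enhancement.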
# Menin-MLL FL inh: menin-MLL binding inhibition, fluorescein peptide; Fluorescence polarization, fluorescein-MLL peptide displacement from menin; 290,000 tested, under 10 active; FP activity change, % at 61.4 µM; AID 1766; inconclusive = falling polarisation curve, or a change in total fluorescence; inactive = total fluorescence flat and polarisation flat or rising; no compound was filed as active; the % refers to the polarisation; negative = inhibition;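 note: % of control where 0% means no effect; inhibitors lower the polarisation; unlabelled MLL peptide was the positive control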
# ClpP mod: qHTS Assay for Activators of ClpP | purified B. subtilis ClpP, FRET peptide cleavage, 20 min | Potency, µM (highest dose often 57.5 µM), for the others: at the highest dose activity change, negative = active | hit rate 1.9% among 340,000 | AID 651965, 2013; active = well fitted falling curve with a large enough effect; inconclusive = small, poorly fitted or top-dose-only effect; inactive = no such curve, though single readings can be large or run the other way; note: potency is the fitted concentration of half-maximal effect; the source files actives as falling curves though it sought activators and does not explain the sign; nearly all actives have a fitted effect of over 65% in size; many hits overshoot -100%
# Target sequence (P80244 whole entry, looked up): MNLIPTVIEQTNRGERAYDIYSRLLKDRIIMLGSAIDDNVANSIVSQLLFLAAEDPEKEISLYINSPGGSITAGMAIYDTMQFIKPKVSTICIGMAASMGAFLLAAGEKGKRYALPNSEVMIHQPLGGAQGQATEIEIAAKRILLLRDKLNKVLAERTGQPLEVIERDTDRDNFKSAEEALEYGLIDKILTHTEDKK
#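 Purified B. subtilis ClpP, 10 microg/mL final in Tris/HCl pH8 with KCl, BSA, glycerol and Tween-20, cleaved an Abz/nitrotyrosine-quenched decapeptide. Fluorescence (ex 320, em 430) was read at 0 and 20 min at room temperature. Delta was normalized to 5.8 microM ADEP and DMSO/no-enzyme controls.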
# gsp ag: agonists of gsp mutant (McCune-Albright syndrome) | gsp mutant cells, cAMP HTRF, 30 min; control for the full effect not named in the record | Potency, µM (top dose mostly 76.9 µM), without a hit: at the top dose activation (cAMP increase), hits mostly activators | hit rate 0.13% among 340,000 | AID 624287; active = well fitted activation curve with a large enough effect; inconclusive = small, poorly fitted or top-dose-only effect, or another doubt; inactive = no such curve, though single readings can be large or run the other way; cell line not stated here;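 note: phosphodiesterase inhibitor Ro 20-1724 added with compounds to block cAMP breakdown; potency is the fitted concentration of half-maximal effect; nearly all actives have a fitted effect of over 60% in size; about a fifth of the inactives were tested at one dose only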
#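 Cells in DMEM/10% FBS with G418 were pretreated with compounds in DMSO plus […] (300 uM stock) for 30 min at 37C. cAMP was measured by HTRF (cAMP-d2 plus anti-cAMP antibody-K) after 30 min at room temperature.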
# TRPML1 inh: blocks the human TRPML1 channel; Q9GZU1; TRPML1-inducible cells, Ca2+ dye fluorescence, FDSS; stronger effect = lower value; inhibition of EC80 agonist-evoked calcium signal; activity change, negative = inhibition, % (concentration not given with the values); hit rate 0.02% among 390,000; AID 624415; in the data active means activity change below about -50%; inconclusive means about -30% to -50%; inactive means above about -30%;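 note: stimulus is agonist 54-4 at its EC80 concentration; % is set by controls: 0 for no effect and ±100 for the full control effect; compound concentration not given in the record; the text of the record puts the active cut at -80%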
# Target sequence (Q9GZU1 whole entry, looked up): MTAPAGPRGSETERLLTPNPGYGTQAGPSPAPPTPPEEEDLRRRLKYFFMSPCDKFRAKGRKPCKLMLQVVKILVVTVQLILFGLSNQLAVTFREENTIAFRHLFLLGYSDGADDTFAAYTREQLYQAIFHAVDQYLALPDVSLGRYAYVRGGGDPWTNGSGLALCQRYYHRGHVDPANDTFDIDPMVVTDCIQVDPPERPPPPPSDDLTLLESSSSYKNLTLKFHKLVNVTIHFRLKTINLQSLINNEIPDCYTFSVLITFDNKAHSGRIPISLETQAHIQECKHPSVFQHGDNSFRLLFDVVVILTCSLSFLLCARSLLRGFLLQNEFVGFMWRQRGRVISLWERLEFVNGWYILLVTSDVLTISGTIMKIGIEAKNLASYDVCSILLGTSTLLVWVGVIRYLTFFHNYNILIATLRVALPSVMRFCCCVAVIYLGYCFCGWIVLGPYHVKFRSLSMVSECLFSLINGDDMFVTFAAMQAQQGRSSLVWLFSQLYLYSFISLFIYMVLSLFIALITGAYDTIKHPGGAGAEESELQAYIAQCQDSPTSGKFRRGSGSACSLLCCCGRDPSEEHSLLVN
#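 TRPML1-DL cells, Tet-induced overnight (~16 h, 37 °C) at 1,500 cells/well, were loaded with Ca8 no-wash dye plus quencher for 45-90 min at room temperature. Compounds were pinned during FDSS kinetic reading; agonist 54-4 at EC80 (4 uM final) then added.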
# gsp antag: gsp mutant antagonism | gsp-mutant cells, cAMP HTRF, 30 min; control for the full effect not named in the record | Potency, µM (highest dose often 76.9 µM), for the others: at the highest dose activity change, negative = inhibition, usual class: inhibitors | hit rate 0.4% among 340,000 | AID 624288; active = falling curve of any shape with a large fitted effect; inconclusive = falling curve, mostly with a smaller effect; inactive = flat or rising curve; cell line not stated here;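 note: intracellular cAMP measured with PDE inhibitor Ro 20-1724 present during compound exposure; potency is the fitted concentration of half-maximal effect; % is set by controls: 0 for no effect and ±100 for the full control effect; nearly all actives have a fitted effect of over 65% in size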
#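 G418-selected cells were plated in DMEM/10% FBS for 16-24 h at 37C, then treated with compounds plus the PDE inhibitor […] (300 uM solution added) for 30 min at 37C. Intracellular cAMP was measured by HTRF after 30 min lysis at room temperature.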
# Starred values were filed as active, the others as inactive; ? = inconclusive; nt = no result given; & = joins results of further samples; [ ] = remark or other dose. No enrichment for hits (roughly 4.9% active in at least one column).
SMILES,Sfp inh,TRPV1 PAM,Menin-MLL FL inh,ClpP mod,gsp ag,TRPML1 inh,gsp antag
Cc1cc(=O)oc2c(CN3CC(C)OC(C)C3)c(O)c(Cl)cc12 (stereo not given),-15%,5,?,nt,-1%[15.4 µM],3,2%
C[C@H](NC(=O)Cn1cncn1)c1ccccc1,7%,8,8.9,2.5%,-22%,8,4%
Cc1ccc(CSc2nnc(Cn3c(=O)sc4ccccc43)n2C)cc1,16%,3,2.1,1.3%,-30%[inhibitor],5,2%
CC(C)CCNC(=O)NC(=O)Cn1cc(C(F)(F)F)ccc1=O,15%,1,3.5,nt,nt,nt,nt
CCN(CC)CCNC(C(=O)Nc1cccc(C(C)=O)c1)c1ccccc1 (stereo not given),?,3,4.7,nt,7%[15.4 µM],1,10%
O=C(/C=C/c1ccccc1O)c1ccccc1,nt,nt,nt,nt,-51%[inhibitor],-5,8%
CCN(CC)c1ccc(NC(=O)COc2ccccc2C#N)cc1S(=O)(=O)Nc1ccc(OC)cc1,-16%,4,9.2,?,-3%,-11,-8%
O=C(NCCS(=O)(=O)c1ccc(Br)cc1)c1c(F)cccc1F,7%,-15,-3.0,-0.5%,-42%[inhibitor],2,9%
CC(=O)c1sc2nc(SCC(=O)N3CCCCC3)[nH]c(=O)c2c1C,0%,-3,?,32µM*,?,-18,1%
CC(=O)c1ccccc1NC(=O)COC(=O)c1cc2ccccc2[nH]1,nt,6,nt,-5.3%,?,-10,?
COc1ccc(-c2c(C#Cc3ccc(N(C)C)cc3)c3ccccc3n2C)cc1,nt,nt,nt,59%,-2%,-6,6%
CCN(CC)c1ccc(NC(=O)C2CC3CCC2C3)cc1 (stereo not given),-18%,-5,5.8,1.2%,7%,50,-3%
Cc1cc(C)c(C)c(S(=O)(=O)N2CCC(C(=O)OCC(=O)N3c4ccccc4NC(=O)C3(C)C)CC2)c1C,-4%,3,0.9,-2.4%,-2%,2,6%
COc1ccc2c(c1)C(=O)C(=O)N2,-10%,6,7.5,2.1%,-34%,-17,4%
CS(=O)(=O)Nc1ccccc1C(=O)Nc1cc(Cl)cc(Cl)c1,12%,14,-2.4,14µM*,-18%,6,?

# Two compounds drawn at random from the list so far, as already listed:
SMILES,Sfp inh,TRPV1 PAM,Menin-MLL FL inh,ClpP mod,gsp ag,TRPML1 inh,gsp antag
CC(C)CCNC(=O)NC(=O)Cn1cc(C(F)(F)F)ccc1=O,15%,1,3.5,nt,nt,nt,nt
C[C@H](NC(=O)Cn1cncn1)c1ccccc1,7%,8,8.9,2.5%,-22%,8,4%

# (more compounds)
SMILES,Sfp inh,TRPV1 PAM,Menin-MLL FL inh,ClpP mod,gsp ag,TRPML1 inh,gsp antag
CCC(=Nc1ccccc1)C1=C(O)CCCC1=O,14%,0,2.5,1.0%,-5%[15.4 µM],2,-19%
COc1ccc(C2NC(=O)Cc3cc(OC)c(OC)cc32)cc1OC (stereo not given),21%,-8,0.3,0.7%,?,-30,11%
CN(c1ccccc1)S(=O)(=O)c1cccc(NC(=O)CC(C)(C)C)c1,13%,-15,2.4,2.0%,17%,-8,-6%
COc1ccc(CNc2nnnn2C)c(OC)c1,21%,5,-1.2,-0.5%,-8%[15.4 µM],16,5%
Cc1nn(Cc2ccccc2)c(C)c1NC(=O)c1cc(-c2ccco2)on1,2%,-4,2.1,-2.6%,?,-10,-16%
COc1cc(C2C(C#N)=C(N)Oc3cc(C)oc(=O)c32)ccc1OC(=O)N1CCOCC1 (stereo not given),6%,-21,5.8,-0.2%,-37%[inhibitor],-2,4%
CC(OC(=O)Cc1coc2ccc3ccccc3c12)C(=O)NC(N)=O (stereo not given),9%,-17,4.6,-17%,-74%[inhibitor],?,-13%
CCN1CCN(CC(=O)N2c3ccccc3Sc3ccccc32)CC1,19%,?,0.1,-1.0%,-51%,7,-4%
Cc1cc(C)n2nc(CCCCc3nc4nc(C)cc(C)n4n3)nc2n1,8%,-2,0.2,nt,nt,nt,nt
O=C1CC(c2ccco2)Cc2nc(N3CCc4ccccc4C3)ncc21 (stereo not given),25µM*,12,-0.2,-15%,16%,-12,2%
C[C@@H]1CN([C@@H](C)CO)C(=O)CCCn2nncc2CO[C@H]1CN(C)S(=O)(=O)c1ccc(-c2ccccc2)cc1,nt,nt,nt,1.0%,1%,-3,nt
CC(NC(=O)COc1ccc(S(=O)(=O)N2CCCC2)cc1)c1ccccc1 (stereo not given),9%,3,-3.0,nt,-21%[15.4 µM],-6,-4%
CCn1c(SC(C)C(=O)O)nnc1-c1cccnc1 (stereo not given),15%,20,3.7,-1.2%,2%,-9,3%
O=C(NCC(=O)N(c1ccccc1)C(C(=O)NCC1CCCO1)c1ccccc1)c1ccco1 (stereo not given),14%,20,3.5,0.8%,0%,-6,-3%
Cc1nonc1CN(C)C(=O)CC1C(=O)NCCN1Cc1ccc(F)c(F)c1 (stereo not given),-6%,2,-11,nt,0%,13,1%
N#Cc1sc(=O)[nH]c1Cl,50µM*,nt,?,1.0%,nt,0&0,6%
Nc1c(C(=O)c2ccc(Cl)cc2)sc2nc3c(cc12)CCC3,14%,-7,1.6,1.0%,21%,3,-3%
O=C(O)CCCCCNS(=O)(=O)c1ccc2c(c1)OCCO2,0%,1,-2.0,1.8%,1%,1,15%
CC(OC(=O)CCN1C(=O)C2CC=CCC2C1=O)C(=O)Nc1ccc(F)cc1 (stereo not given),nt,nt,nt,nt,2%[15.4 µM],-9,-1%
CCNC(=O)c1oc2c(c1C)C(=O)CC(C)(C)C2,21%,-15,-0.5,-1.4%,-6%,16,6%
Cn1c(C(=O)NCCc2c[nH]c3ccccc23)cc2sccc21,12%,?,4.8,-6.5%,3%,1,-7%
CCN(C(=O)COC(=O)c1ccc([N+](=O)[O-])o1)C1CCCCC1,nt,nt,nt,-1.2%,18%,-7,5%
CC(NC(=O)CN(C)S(=O)(=O)c1cnc[nH]1)c1ccccc1 (stereo not given),13%,7,-3.3,2.2%,-1%,-15,5%
Cc1ccc(CCNC(=O)CC(C)CC2=NS(=O)(=O)c3ccccc3N2)cc1 (stereo not given),4%,-3,nt,-0.7%,8%,16,-1%
Nc1ccccc1C(=O)NC1CCCCNC1=O (stereo not given),16%,nt,1.2,0.5%,3%[15.4 µM],-11,-2%
COc1ccc2ccccc2c1/C=N/NC(=O)c1ccccc1F,12%,-15,-0.5,-3.2%,-1%[15.4 µM],10,-17%
Nc1cc(=O)[nH]c(SCC(=O)Nc2ccc(S(=O)(=O)N3CCCC3)cc2)n1,nt,nt,nt,nt,-5%,-7,5%
COc1ccc(CC(=O)NCc2cccs2)cc1OC,2%,-11,2.5,-5.0%,14%,-9,17%
CN(C)CCCN(C(=O)/C=C/c1cccs1)c1nc2c(F)cccc2s1,-20%,1,-3.2,nt,1%[15.4 µM],-10,-3%
O=C(CCc1nnc(-c2ccccc2)o1)NC1CCCCC1,-7%,-8,0.1,3.4%,?,40,-1%
Cc1ccc(NC(=O)Cc2cccs2)cc1Cl,-1%,-13,0.7,-2.5%,1%[15.4 µM],9,7%
CC(=O)N1CCC2(CC1)C/C(=N\NC(=S)Nc1ccccc1F)c1cc(O)ccc1O2,-26%,3,0.8,25µM*,-11%,2,-21%
N/C(=N\O)c1ccc([N+](=O)[O-])s1,3%,4,-2.7,1.4%,6%,-4,3%
CCN(CC)CCN1C(=O)c2ccccc2NC1c1ccc(F)cc1 (stereo not given),11%,3,0.9,32µM*,19%,6,14%
COC(=O)c1ccccc1NC(=O)C1CC=CCC1C(=O)O (stereo not given),14%,5,-0.2,22µM*,2%,-10,-4%
COc1ccc(Br)cc1CNC(=O)CCNC(=O)Cn1ccc2ccccc2c1=O,0%,12,-5.3,nt,6%[15.4 µM],0,-5%
O=C(c1cnc2n(c1=O)CCS2)N(C1CCCCC1)C1CCCCC1,4%,-11,2.0,-0.9%,7%,1,3%
CCCn1nc(NC(=O)c2ccco2)c2cc3cc(C)ccc3nc21,?,-15,1.4,-4.2%,-8%,-19,-16%
CC(=O)C1=C(C)Nc2ncnn2C1c1ccc(F)cc1 (stereo not given),3%,7,-4.2,-1.9%,9%,nt,9%
Cc1cc(S(=O)(=O)NC(C)c2nnc3ccccn23)ccc1Br (stereo not given),nt,nt,nt,-1.6%,-21%,3,9%
Cc1cc(OCc2ccc(C(=O)Nc3ccc(C(=O)O)cc3)o2)ccc1Cl,1%,-7,4.5,nt,3%[15.4 µM],-4,-25%
Cc1c(-n2c(SCC(=O)O)nnc2-c2ccccc2Cl)c(=O)n(-c2ccccc2)n1C,12%,9,3.6,35µM*,?,8,10%
O=C(/C=C/Nc1cccc(C(F)(F)F)c1)c1ccco1,7%,-15,10,nt,-10%,0,-2%
CC(NCCOc1ccccc1F)C(=O)Nc1ccc(S(N)(=O)=O)cc1 (stereo not given),11%,-20,-0.1,-0.3%,?,-4,4%
COc1cc(C(=O)c2nccc3cc(OC)c(OC)cc23)c([N+](=O)[O-])cc1OC,11%,1,-3.4,nt,9%[15.4 µM],7,27%
CN(C)/C=C/C(=O)c1ccc(F)cc1F,7%,-8,3.0,0.7%,-26%,16,9%
Cc1ccc(NC(=O)CCN2C(=O)c3ccccc3S2(=O)=O)cc1C,nt,13,nt,-2.7%,-27%,9,3%
CCOCCCNC(=O)c1ccc(Cn2c(=S)[nH]c3c([nH]c4ccc(OC)cc43)c2=O)cc1,12%,23,-0.1,-8.0%,12%,-19,-1%
O=C(Nn1cnc2ccccc2c1=O)c1cccc(Cl)c1,5%,-12,2.4,nt,-2%[15.4 µM],-4,10%
Cn1cnnc1SCc1ccc(C(=O)N/N=C(/CCC(=O)O)c2ccc(C(C)(C)C)cc2)cc1,nt,nt,nt,2.6%,8%[15.4 µM],15,2%
CCNC(=O)NC(=O)CSc1nc2ccccc2n1CCOC,6%,17,0.3,1.2%,2%,3,2%
CNC(=O)Nc1cc(NC(=O)NC)cc(C(F)(F)F)c1,7%,2,2.0,-0.9%,-3%[15.4 µM],5,6%
CCOC(=O)C1CCN(C(=O)CCNC(=O)c2cc(OC)c(OC)c(OC)c2)CC1,11%,-12,3.8,-3.3%,0%,1,10%
